High-throughput results from PubChem BioAssay.
CBX7 AlphaScr – inhibitors of human CBX7 binding to H3K27me3 peptide; AlphaScreen His6-CBX7 / biotin-H3K27me3 peptide binding; stronger effect = lower value; normalised signal (fraction of DMSO) (concentration not given with the values); 66,000 compounds, 1.1% hits; in the data active = normalised signal below about 0.5;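 note: 100 nL library stock added to about 20 µL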
Target sequence (O95931 whole entry, looked up): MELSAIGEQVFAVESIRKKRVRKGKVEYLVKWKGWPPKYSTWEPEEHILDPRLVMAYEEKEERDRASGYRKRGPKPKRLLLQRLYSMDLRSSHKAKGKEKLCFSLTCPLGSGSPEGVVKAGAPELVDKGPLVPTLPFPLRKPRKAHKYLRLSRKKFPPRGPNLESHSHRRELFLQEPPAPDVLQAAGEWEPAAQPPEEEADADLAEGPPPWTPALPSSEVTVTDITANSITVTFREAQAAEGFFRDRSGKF
CBX7 AlphaScr z-score – also measured in CBX7 AlphaScr; calls as there; z-score; measured here: z-score of CBX7 signal; some inactives read as strong as hits; reference of the scale not given here;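 same signal on another scale; lower means less binding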
Active calls of the source: *; & = joins results of further samples.

structure	CBX7 AlphaScr	CBX7 AlphaScr z-score
CCOc1ccc(C2C(N3C(=O)c4ccccc4C3=O)C(=O)N2c2ccc(Cl)cc2)cc1 (stereo not given)	0.957	-1.26
CCOc1ccc(C2C(N3C(=O)c4ccccc4C3=O)C(=O)N2c2ccc(C)c(C)c2)cc1 (stereo not given)	0.94	-1.33
Cc1ccccc1NC(=O)CN(C)S(=O)(=O)c1ccc2c(c1)n(C)c(=O)c(=O)n2C	1.11	1.07
Cc1cc(=O)n2nc(N3CCCC(C(=O)N4CCc5ccccc54)C3)sc2n1 (stereo not given)	1.11	1.02
O=C(CCCn1nc(-c2ccccc2)c2ccccc21)NC1CCCc2ccccc21 (stereo not given)	0.95	-1.1
O=C(CSc1ncnc2sc(-c3ccccc3)cc12)Nc1c(Cl)cccc1Cl	1.08	0.0921
Cc1cccc(NC(=O)c2cc3n(n2)C(C(F)(F)F)CC(c2ccc4c(c2)OCO4)N3)c1 (stereo not given)	0.887	-0.112
COCc1nnc(NC(=O)c2cccc(NC(=O)C(C)C)c2)s1	1.01	0.333
Cc1onc(-c2c(Cl)cccc2Cl)c1C(=O)NCc1ccccn1	0.875	-0.782
Cc1ccc(Cn2c(C(=O)NCc3ccc4c(c3)OCO4)cc3sccc32)cc1	0.922	-2.15
Cc1ccc2c(c1)C(c1ccc(F)cc1)N(C(=O)CC(C)C)CC(=O)N2 (stereo not given)	0.932	-1.23
Cc1nnc(Sc2cc(C(=O)NCCN3CCCC3)c3ccccc3n2)s1	1.03	0.572

The last 5 compounds of the section before open the next one:
structure	CBX7 AlphaScr	CBX7 AlphaScr z-score
COCc1nnc(NC(=O)c2cccc(NC(=O)C(C)C)c2)s1	1.01	0.333
Cc1onc(-c2c(Cl)cccc2Cl)c1C(=O)NCc1ccccn1	0.875	-0.782
Cc1ccc(Cn2c(C(=O)NCc3ccc4c(c3)OCO4)cc3sccc32)cc1	0.922	-2.15
Cc1ccc2c(c1)C(c1ccc(F)cc1)N(C(=O)CC(C)C)CC(=O)N2 (stereo not given)	0.932	-1.23
Cc1nnc(Sc2cc(C(=O)NCCN3CCCC3)c3ccccc3n2)s1	1.03	0.572
COc1ccc(-c2nc(Nc3ccc(F)cc3F)c3ccccc3n2)cc1OC	1.03	0.609
CCc1ccc(N(CC(=O)Nc2ccc(Br)cc2)S(=O)(=O)c2c(C)noc2C)cc1	1.02	0.37
CC(C)CC(O)(CCN1CCOCC1)c1ccc(OC(C)C)cc1 (stereo not given)	1.15	3.01
COc1cc2[nH]c(=O)n(CCCC(=O)N3CCN(c4ncccn4)CC3)c(=O)c2cc1OC	0.994	-0.147
CCn1c(C(=O)N2CCCC(C(=O)NC3CCCC3)C2)cc2sccc21 (stereo not given)	0.933	-1.92
O=C(Nc1ccc(-c2noc(CCc3ccccc3)n2)cc1)c1ccncc1	1.05	0.999
COC(CNC(=O)C1CC(=O)N(CCc2ccc(C)cc2)C1)OC (stereo not given)	0.963	-1.04
Cc1cccc2c1-c1sc(C(=O)N(C)Cc3ccccc3)cc1CO2	1.18	6.11
COc1ccc2c(c1)c(=O)c(S(=O)(=O)c1ccccc1)cn2Cc1ccccc1Cl	1.03	0.586
CC1CCC(NC(=O)CN2C(=O)COc3ccc(S(=O)(=O)N4CCCCCC4)cc32)CC1 (stereo not given)	0.975	-0.803
CCC(=O)N1CCc2cc(S(=O)(=O)N(CC)Cc3ccccc3)ccc21	1.12	1.32
O=C1CN(C(=O)COc2ccccc2)C(c2ccc(F)cc2)c2cc(F)ccc2N1 (stereo not given)	0.937	-0.086
CC(=O)Nc1ccc(NC(=O)c2cccc(C(=O)OC(C)C)n2)cc1	1.03	0.758
Cc1ccc(CCNC(=O)c2cc(-c3cccnc3)nc3ccccc23)cc1	0.924	-1.5
CCOc1ccc(NC(=O)c2cc3c(n(-c4ccc(OC)cc4)c2=O)CC(C)(C)CC3=O)cc1	0.94	-0.773
Cc1ccsc1-c1nc(CSCC(=O)O)c(C)o1	1.15	1.67
Cc1c(C(=O)Nc2cccc(Cl)c2)oc2ccc(S(=O)(=O)N3CCCCCC3)cc12	1.1	3.69
Cc1ccc(NC(=O)c2cnc3scc(C)n3c2=O)cc1Cl	1.03	0.23
Cc1ccc(CCN2CC(C(=O)NCCC(C)C)CC2=O)cc1 (stereo not given)	1.1	3.12
COc1ccc(OC)c(-c2cc(C(=O)Nc3ccc(OC)c(OC)c3)no2)c1	0.951	-0.0484
O=C(NC1CCCC1)c1ccc2c(c1)N(Cc1ccccc1)C(=O)c1ccccc1S2	1.02	0.575
COc1ccc(Cl)cc1NC(=O)CN(C)S(=O)(=O)c1cnc[nH]1	1.1	0.88
O=C(Nc1ccc(S(=O)(=O)Nc2ncccn2)cc1)c1cc2ccccc2o1	0.995	-0.0494
COc1cc(NC(=O)c2cc(C)on2)c(OC)cc1Cl	1.06	0.069
CCCCCCCNC(=O)c1c[nH]c2ccc(S(=O)(=O)N3CCOCC3)cc2c1=O	0.902	-1.06
COc1ccc(-n2nnc3c(=O)n(Cc4ccc(C)cc4)cnc32)cc1	0.989	-0.263
Cc1ccc(OCC(=O)Nc2cc(-c3nc4ccccc4[nH]3)ccc2C)cc1C	0.98	-0.565
CCOc1ccc(C(=O)Nc2ccc(S(=O)(=O)Nc3ncccn3)cc2)cc1	0.948	-0.183
O=C(COc1ccc(Cl)cc1Cl)Nc1nc(-c2ccc(F)cc2)cs1	0.99	-0.203
COc1ccc(CNc2nc(-c3cccc(OC)c3)cc(C(F)(F)F)n2)cc1	1.21	8.39
O=C(CCc1nc(-c2ccccc2F)no1)NCc1ccccn1	0.888	-1.72
CCOc1ccc(CCNC(=O)Cn2ccc3ccccc3c2=O)cc1OCC	1.18	1.61
Cc1ccc(S(=O)(=O)c2nc(-c3cccs3)oc2SCC(=O)c2ccc(Cl)cc2)cc1	0.907	-0.162
CCC1CCCCN1S(=O)(=O)c1ccc(C(=O)Nc2nnc(C3CC3)o2)cc1 (stereo not given)	0.746	-5.73
Cn1cc(C2CC(=O)N(c3ccc(Br)cc3)C2=O)c2ccccc21 (stereo not given)	0.916	-0.905
CNC(=O)c1c[nH]c2ccc(S(=O)(=O)Nc3cccc(OC)c3)cc2c1=O	0.916	-1.05
CCCCN1C(=O)C(O)(CC(=O)c2ccncc2)c2cc(Br)ccc21 (stereo not given)	0.753	-0.327
CCOc1ccc(-c2csc(NC(=O)CCCOc3ccccc3C)n2)cc1	1.03	0.254
CCCCOc1ccc(C(=O)Nc2sc3c(c2C(N)=O)CCCC3)cc1	0.991	-0.209
COc1ccc2cc(CCNC(=O)c3ccc4ccccc4c3)c(=O)[nH]c2c1	1.08	2.64
Cc1nc2c(-c3ccc(F)cc3)c(C)nn2c(C)c1CCC(=O)N1CCCCC1	0.981	-0.473
CC(=O)c1nn(-c2ccc(Cl)cc2)cc1C(=O)c1ccco1	0.992	-0.215
CCOc1ccc2nc(N3CCC(C(=O)N4CCC(N5CCCCC5)CC4)CC3)sc2c1	1.11	3.02
O=C(O)c1c[nH]c2ccc(S(=O)(=O)N3CCN(c4ncccn4)CC3)cc2c1=O	0.91	-1.78
COc1cc(C2CC(=O)Nc3cc4c(cc32)OCO4)c(OC)cc1C(C)C (stereo not given)	0.692	-3.96
NS(=O)(=O)c1ccc(CCNC(=O)c2ccccc2)cc1	1.03	0.672
Clc1cccc(Nc2nc3nonc3n3nnnc23)c1	0.781	-5.46
CC1CC(C)CN(CCCNC(=O)c2cn(C3CCCC3)c(=O)c3c2c2ccccc2n3C)C1 (stereo not given)	1.05	1.35

More entries
SMILES	CBX7 AlphaScr	CBX7 AlphaScr z-score
COc1ccc(-c2noc(CCC(=O)NCCN(C)Cc3ccccc3)n2)cc1	0.913	-0.0873
CCOC(=O)c1ccc(NC(=O)[C@H](CC(C)C)N2Cc3ccccc3C2=O)cc1	0.901	-2.26
COc1ccc(-n2nnc3c(=O)n(CC(=O)Nc4ccc(C)c(Cl)c4)cnc32)cc1	1.06	1.22
COc1cccc(NC(=O)C2c3cc(OC)c(OC)cc3C(=O)N(C)C2c2ccccc2F)c1 (stereo not given)	0.939	-1.09
Cc1ccc2c(c1)C(c1ccc(F)cc1)N(C(=O)c1ccccc1Br)CC(=O)N2 (stereo not given)	0.766	-2.24
Cc1cc(OCCCCCc2c(C)n[nH]c2C)ccc1Cl	0.895	-2.06
CCCCC(CC)CNC(=O)CN1C(=O)CSc2ccc(S(=O)(=O)N3CCOCC3)cc21 (stereo not given)	0.98	-0.591
O=C(Nc1ccccc1C(F)(F)F)c1cc(-c2cccs2)on1	1.06	0.0642
CCN(CC)CCn1c(=N)n(CC(O)COc2ccccc2C)c2ccccc21 (stereo not given)	1.06	2
O=C(NCc1ccccn1)c1ccc2c(c1)ncn2C1CCCC1	0.551	-5.16
Cc1cc(NC(=O)c2cc(-c3cccc(Cl)c3)on2)nn1Cc1ccc(Cl)cc1	0.997	-0.0826
CCCN(c1nc(C)cc(OC)n1)S(=O)(=O)c1ccc(C)cc1	1.1	4.56
O=C(Nc1ccccc1OCC(F)(F)C(F)F)Nc1cccc2ccccc12	1.02	0.077
CCc1ccc(C2CC(c3ccccc3F)n3ncnc3N2)cc1 (stereo not given)	0.987	-0.463
Cc1ccc(-c2nc3cc(NC(=O)c4cccc(Cl)c4)ccc3o2)c(C)c1	1.02	0.816
CCC1Oc2ccc(C)cc2N(CC(=O)NC2CCCCC2)C1=O (stereo not given)	0.949	-0.95
O=C(NCCCN1CCc2ccccc2C1)c1csc2c1CCCCC2	1.02	0.528
COc1ccc(-n2cc(C(=O)Nc3nc4ccccc4s3)c3ccccc3c2=O)cc1	1	0.0337
COc1ccc(C(=O)Nc2ccc(S(=O)(=O)Nc3ncccn3)cc2)cc1OC	1.01	0.00738
Cc1cc(C)c(NC(=O)C2=CCN(S(=O)(=O)c3ccc(F)cc3)CC2)c(C)c1	0.985	-0.425
CCSc1oc(-c2ccc(C)cc2)nc1S(=O)(=O)c1ccc(F)cc1	0.987	-0.0223
Cc1cccc(-c2noc(COc3ccc(Br)cc3C)n2)c1	2.6	15.3
Cc1cc(OCC(=O)Nc2ccc(-c3nc4ccccc4s3)c(O)c2)ccc1Cl	1.01	0.392
CCn1c(SCCOc2ccccc2)nc2ccccc21	1.16	1.58
Cc1ccc(-c2cc(C(=O)NC3CCCCC3)c3cccc(Cl)c3n2)cc1C	1.04	1.01
COC(=O)c1ccc(OCC(O)Cn2c(Cc3ccccc3)nc3ccccc32)cc1 (stereo not given)	0.95	-0.685
CCn1c(=O)cc(OCC(=O)NCc2ccc(Cl)cc2)c2ccccc21	1.12	1.44
COc1ccc(-c2ccc(=O)n(CC(=O)Nc3ccc(OC)c(OC)c3)n2)cc1	0.949	-0.7
CC(=O)c1nnn(-c2cccc([N+](=O)[O-])c2)c1C	1.13	0.973
CCN(C(=O)Cc1c(C(=O)O)n(C)c2ccccc12)c1cccc(Cl)c1	0.963	-0.755

Pulled by structure from above, six records:
SMILES	CBX7 AlphaScr	CBX7 AlphaScr z-score
CC1CCC(NC(=O)CN2C(=O)COc3ccc(S(=O)(=O)N4CCCCCC4)cc32)CC1 (stereo not given)	0.975	-0.803
Cc1cccc(NC(=O)c2cc3n(n2)C(C(F)(F)F)CC(c2ccc4c(c2)OCO4)N3)c1 (stereo not given)	0.887	-0.112
CCN(CC)CCn1c(=N)n(CC(O)COc2ccccc2C)c2ccccc21 (stereo not given)	1.06	2
Cc1ccc(-c2cc(C(=O)NC3CCCCC3)c3cccc(Cl)c3n2)cc1C	1.04	1.01
Cc1ccc(NC(=O)c2cnc3scc(C)n3c2=O)cc1Cl	1.03	0.23
Cc1c(C(=O)Nc2cccc(Cl)c2)oc2ccc(S(=O)(=O)N3CCCCCC3)cc12	1.1	3.69

(next part)
SMILES	CBX7 AlphaScr	CBX7 AlphaScr z-score
O=C(C1CC1)N1CCc2cc(S(=O)(=O)Nc3ccc(Cl)cc3F)ccc21	0.958	-0.171
Cc1cc(C)nc(NC(=O)C(O)(c2ccccc2)c2ccccc2)c1	1.02	0.42
COc1cc(NC(=O)c2cccc(Cl)c2)ccc1NC(=O)c1cc2ccccc2o1	1	0.00313
COc1ccc(OC)c(NC(=O)C2(S(=O)(=O)c3ccc(Cl)cc3)CC2)c1	0.986	-0.245
COc1ccc2c(c1)Cc1sc(NC(=O)c3ccc(F)cc3)nc1-2	1.04	0.522
Cc1nc2c(-c3ccc(F)cc3)c(C)nn2c(C)c1CCC(=O)N(C)c1ccccc1	1.12	2.37
O=C(CN1C(=O)CSc2ncccc21)N1CCc2ccccc21	1.01	0.0146
Cc1cccc(Nc2ncc(F)c(N3CCCCC3)n2)c1C	0.703	-5.86
Cc1ccccc1NC(=O)CCc1c(C)nc2cc(-c3cccc(F)c3)nn2c1C	0.986	-0.349
COc1cccc(CNc2ccc3c(c2)ncn3C2CCCCC2)c1OC	0.654	-4.1
Cc1nc2nc(C)c(CCC(=O)Nc3ccccc3)c(C)n2n1	1.28	1.2
Cc1ccc(Nc2c3c(nc4ccc(Cl)cc24)CCC3)c(Cl)c1	0.873	-0.173
Cc1ccc(N(CC(=O)NCc2ccc(Cl)cc2)S(=O)(=O)c2c(C)noc2C)cc1	1.02	0.126
CCC(=O)N1CCc2cc(S(=O)(=O)NC(Cc3ccccc3)C(=O)Nc3ccccc3C)ccc21 (stereo not given)	1.16	2.48
CCOc1ccccc1C(=O)NCCc1cc2c(OC)ccc(OC)c2[nH]c1=O	1.02	0.84
COC(=O)c1nnn(-c2nonc2N)c1CSc1nc2ccccc2s1	0.933	-1.96
Cc1cccc(NC(=O)Cn2cnc3sc4c(c3c2=O)CCC4)c1	0.862	-0.138
CCc1ccc(-c2csc(NC(=O)c3ccc(S(=O)(=O)N(CCOC)CCOC)cc3)n2)cc1	1.03	0.701
Cc1nn(CC(=O)Nc2nc3ccc(Br)cc3s2)c(=O)c2ccccc12	1.01&1.11	0.351&1.76

This is a subset; rates above refer to the full screens.
